NPYLR7 agonist – agonists of mosquito NPYLR7 receptor, primary screen, cell-based, Aedes aegypti, calcium fluorescence, mosquito biting behavior; Aedes aegypti neuropeptide Y-like receptor 7 (NPYLR7); actives 0.15% (n = 270,000); HEK293T NPYLR7/Galpha15, GCaMP6s calcium fluorescence; activation, % at 10 µM; in the data active means activation above about 40%;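 further: 0% = vehicle and 100% = reference agonist at the receptor; some compounds past the cut are filed as inactive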
NPYLR7 agonist max-min – second read-out of NPYLR7 agonist, no call of its own (marks repeat the call); activation, %; measured here: Max-Min RFU normalised activation; some inactives read as strong as hits;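 span of the calcium signal over five minutes; 0% = vehicle and 100% = native peptide agonist; compound fluorescence can raise it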
* marks the source's active call; other numbers are inactive results; & = joins results of further samples.

nr | canonical_smiles | NPYLR7 agonist max-min | NPYLR7 agonist
1 | c1ccc(CC2=NCCN2)cc1 | -11&-19&-11&-3 | -5&-15&-7&0
2 | O=C1c2c(O)cccc2C(C2OC(CO)C(O)C(O)C2O)c2cc(CO)cc(O)c21 (centres undefined) | -29 | -22
3 | Cn1c(=O)c2c(ncn2CC2OCCO2)n(C)c1=O | 11 | 5
4 | C1CCC(C(CC2CCCCN2)C2CCCCC2)CC1 (centres undefined) | -12&-8&-4 | -8&-4&-2
5 | O=C(C1CCCO1)N1CCN(c2ccc(-n3cccn3)nn2)CC1 (centres undefined) | -13 | -5
6 | Cc1nc2ccccn2c(=O)c1CCN1CCC(C(=O)c2ccc(F)cc2)CC1 | -6&-27&-9&-41 | -4&-27&-3&4
7 | CC(COc1ccccc1)NC(C)[C@H](O)c1ccc(O)cc1 (some centres undefined) | -14 | -5
8 | NC(=O)c1cccc(-c2cc(Nc3ccc(OC(F)(F)F)cc3)ncn2)c1 | -7 | -4
9 | CN1CCN(CCOc2cc(OC3CCOCC3)c3c(Nc4c(Cl)ccc5c4OCO5)ncnc3c2)CC1 | -14 | -13
10 | CNC(=O)CN1CCC(Oc2cc3c(Nc4cccc(Cl)c4F)ncnc3cc2OC)CC1 | -15 | -12
11 | Cc1cc(NS(=O)(=O)c2ccc(N)cc2)nc(C)n1 | -21 | -13
12 | CCn1cc(-c2ccnc3[nH]c(-c4cccc(CN(C)C)c4)cc23)c(-c2ccc(NC(=O)N(C)C)cc2)n1 | -12 | -8
13 | Cn1c(=O)c2[nH]c(Br)nc2n(C)c1=O | 10 | 2
14 | CC(C)C[C@@H](C(=O)N[C@H](C(=O)OC1CCCC1)c1ccccc1)[C@H](O)C(=O)NO | 20 | 26
15 | CN(C)[C@@H](CCOc1cccc2ccccc12)c1ccccc1 | -10 | -3
16 | Cn1cc(-c2ccc3nnc(C(F)(F)c4ccc5ncccc5c4)n3n2)cn1 | -13 | -7
17 | O=C(Cc1ccc(-c2ccc(OCCN3CCOCC3)cc2)cn1)NCc1ccccc1 | 1 | 17
18 | CC(=O)c1ccc2c(c1)N(CCCN(C)C)c1ccccc1S2 | -6 | -2
19 | COc1cc2c(cc1OC)C(=O)C(CC1CCN(Cc3ccccc3)CC1)C2 (centres undefined) | -8 | -4
20 | CN1CCC(=C2c3ccccc3C=C(O)c3sccc32)CC1 | -8&-12&-6&-33 | -5&-10&-2&3
21 | CCC(C)n1ncn(-c2ccc(N3CCN(c4ccc(OCC5COC(Cn6cncn6)(c6ccc(Cl)cc6Cl)O5)cc4)CC3)cc2)c1=O (centres undefined) | -13 | -9
22 | O=C(Nc1ccc(OC(F)(F)F)cc1)c1sccc1NCc1ccnc2ccccc12 | -9 | -4
23 | COc1ccc(-c2cc3c(C)nc(N)nc3n(C3CCC(OCCO)CC3)c2=O)cn1 (centres undefined) | -5 | 0
24 | CCCCCCCCCCCCCCC[C@H](O)[C@H](N)CO | -10 | -4
25 | CCCn1cnc2c1c(=O)n(CCCCC(C)=O)c(=O)n2C | -17 | 5
26 | C[C@@H]1COC(Nc2ccc3ncnc(Nc4ccc(OCc5nccs5)c(Cl)c4)c3c2)=N1 | -8 | -2
27 | Oc1ccc(/C=C/c2cc(O)cc(O)c2)cc1 | -3&-9&12 | -2&-6&1
28 | C[C@]12CCC(=O)C=C1CC[C@@H]1[C@@H]2CC[C@@]2(C)[C@H]1CC[C@]2(O)C(=O)CO | -14 | 1
29 | CCOc1ccc(C(=O)OCCN(CC)CC)cc1 | -23 | -6
30 | O=C(c1ccc(C(=O)N2CCC(N3CCCC3)CC2)c(Nc2ccccc2)c1)N1CCC(N2CCCC2)CC1 | 3 | 23

By substructure, those above containing an NH in an aromatic ring
nr | canonical_smiles | NPYLR7 agonist max-min | NPYLR7 agonist
12 | CCn1cc(-c2ccnc3[nH]c(-c4cccc(CN(C)C)c4)cc23)c(-c2ccc(NC(=O)N(C)C)cc2)n1 | -12 | -8
13 | Cn1c(=O)c2[nH]c(Br)nc2n(C)c1=O | 10 | 2

(further entries)
nr | canonical_smiles | NPYLR7 agonist max-min | NPYLR7 agonist
31 | Cc1csc(NC(=O)c2cn(Cc3cccc(F)c3)nc2OCc2cccc(F)c2)n1 | 1 | 12
32 | CC[N+](C)(CC)CCOC(=O)C(O)(c1ccccc1)C1CCCCC1 (centres undefined) | -12&-6 | -4&-3
33 | CC1(C)O[C@H]2CC(=O)OC[C@]23[C@H]2CC[C@@]4(C)[C@H](c5ccoc5)OC(=O)[C@H]5O[C@]54[C@]2(C)C(=O)C[C@@H]13 | -11 | -10
34 | C=CC1=C(C(=O)O)N2C(=O)[C@@H](NC(=O)/C(=N/O)c3csc(N)n3)[C@H]2SC1 | -21 | -12
35 | NC(N)=NCCC[C@H](N)C(=O)O | -8 | 4
36 | CC(=O)[C@H]1CCC2C3C[C@H](C)C4=CC(=O)CC[C@]4(C)C3[C@@H](O)C[C@@]21C (some centres undefined) | -12 | -6
37 | Cc1ccc(F)c(NC(=O)Nc2ccc(-c3cccc4[nH]nc(N)c34)cc2)c1 | -32 | -25
38 | O=C1Cc2c([nH]c3ccc(Br)cc23)-c2ncccc2N1 | 0 | 5
39 | O=C(c1ccc(F)cc1)C1CCN(CCn2c(=O)[nH]c3ccccc3c2=O)CC1 | -13&-10&33 | -8&-5&3
40 | COc1cc(C(=O)NC(=S)Nc2cccc(NC(=O)c3ccccc3)c2)cc(OC)c1OC | 2 | 14
41 | COc1ccc2c(c1)OC1(C)CC2C(S(=O)(=O)c2ccc(C)c(C)c2)C(=O)N1C (centres undefined) | 12 | 10
42 | CCCCNC(=O)[C@@H]1Cc2ccccc2N1C(=O)[C@@H](N)CC | -18 | -14
43 | CC#CCn1c(N2CCC[C@@H](N)C2)nc2c1c(=O)n(Cc1nc(C)c3ccccc3n1)c(=O)n2C | -4 | 4
44 | COc1ccccc1N1CCN(CCCNc2cc(=O)n(C)c(=O)n2C)CC1 | -27&-9&-12&-9&-6 | -26&-4&-7&-3&1
45 | c1ccc(CN(CC2=NCCN2)c2ccccc2)cc1 | -13&-7&-4 | -10&-2&1
46 | CC(COc1ccccc1)NC(C)C(O)c1ccc(O)cc1 (centres undefined) | -8&-3 | -5&-1
47 | C[C@@H](Oc1cc(-n2cnc3ccc(CN4CCN(C)CC4)cc32)sc1C(N)=O)c1ccccc1C(F)(F)F | -14 | -9
48 | CN(C)CCOC(C)(c1ccccc1)c1ccccn1 (centres undefined) | -9&-11&-9&-10&-26 | -4&-1&-5&-4&-2
49 | O=C1CC2(CCCC2)CC(=O)N1 | 2 | 0
50 | Cc1cc(CC(C)CC(C)(C)C)n(O)c(=O)c1 (centres undefined) | -9 | -14
51 | CCn1c(N)c(C(=O)NC)c(=O)c2ccc(C#C[C@@](C)(O)COC)nc21 | -1 | 13
52 | CN1CCOC(c2ccccc2)c2ccccc2C1 (centres undefined) | -14&-3 | -11&-2
53 | CCOC(=O)c1ccc(N)cc1 | -17&-10 | -11&-6
54 | C[C@@H]1CC2C3C[C@H](F)C4=CC(=O)C=C[C@]4(C)[C@@]3(F)[C@@H](O)C[C@]2(C)[C@@]1(O)C(=O)COC(=O)C(C)(C)C (some centres undefined) | -4 | 0
55 | COc1ccc(C2=NC(c3ccc(Cl)cc3)C(c3ccc(Cl)cc3)N2C(=O)N2CCNC(=O)C2)c(OC(C)C)c1 (centres undefined) | -10 | -4
56 | CCN1CCN(Cc2ccc(Nc3ncc(F)c(-c4cc(F)c5nc(C)n(C(C)C)c5c4)n3)nc2)CC1 | -6 | 1
57 | COc1ccc(C(=O)NCc2ccc(OCCN(C)C)cc2)cc1OC | -6&5 | -2&-5
58 | Cc1nc(N)sc1-c1ccnc(Nc2ccc(N3CCOCC3)cc2)n1 | -8 | -4
59 | Cc1oc(=O)oc1CN1CCN(c2cc3c(cc2F)c(=O)c(C(=O)O)c2n3C(C)S2)CC1 (centres undefined) | -29&-20 | -17&-7
60 | CCCNC(C)C(=O)Nc1c(C)csc1C(=O)OC (centres undefined) | -11 | -1

Arranged by length of the SMILES (low to high): part of the list above
nr | canonical_smiles | NPYLR7 agonist max-min | NPYLR7 agonist
42 | CCCCNC(=O)[C@@H]1Cc2ccccc2N1C(=O)[C@@H](N)CC | -18 | -14
41 | COc1ccc2c(c1)OC1(C)CC2C(S(=O)(=O)c2ccc(C)c(C)c2)C(=O)N1C (centres undefined) | 12 | 10
34 | C=CC1=C(C(=O)O)N2C(=O)[C@@H](NC(=O)/C(=N/O)c3csc(N)n3)[C@H]2SC1 | -21 | -12

Some values from the entries so far.
Reading for #32 in NPYLR7 agonist: -4&-3
Reading for #54 in NPYLR7 agonist max-min: -4

Compound profiles, from the list above.
C=CC1=C(C(=O)O)N2C(=O)[C@@H](NC(=O)/C(=N/O)c3csc(N)n3)[C@H]2SC1 is listed with NPYLR7 agonist max-min = -21; NPYLR7 agonist = -12
CCN1CCN(Cc2ccc(Nc3ncc(F)c(-c4cc(F)c5nc(C)n(C(C)C)c5c4)n3)nc2)CC1 is listed with NPYLR7 agonist max-min = -6; NPYLR7 agonist = 1
COc1ccccc1N1CCN(CCCNc2cc(=O)n(C)c(=O)n2C)CC1 is listed with NPYLR7 agonist max-min = -27&-9&-12&-9&-6; NPYLR7 agonist = -26&-4&-7&-3&1

Additional results follow:
nr | canonical_smiles | NPYLR7 agonist max-min | NPYLR7 agonist
61 | Cc1ccccc1C(=O)Nc1ccc(C(=O)N2CCCC(O)c3cc(Cl)ccc32)c(C)c1 (centres undefined) | -14 | -9
62 | O=C(CCNNC(=O)c1ccncc1)NCc1ccccc1 | 29&2&-19 | 37&1&2
63 | Cc1c(NC(=O)c2cccnc2)c(=O)n(-c2ccccc2)n1C | -10&-7 | -6&-1
64 | OCCN1CCN(CCCN2c3ccccc3Sc3ccc(Cl)cc32)CC1 | -17&-2&-5&-25 | -6&8&-1&0
65 | COc1ccc(Cn2ccc3ccc(C(=O)NO)cc32)cc1 | -1 | -1
66 | CC(C(=O)O)c1ccc(C(=O)c2cccs2)cc1 (centres undefined) | -3&-4 | -5&0
67 | O=C(Nc1cc2cc[nH]c2cn1)c1ccccc1 | -8 | -3
68 | CCN(CC)CCNC(=O)c1cc(Cl)c(N)cc1OC | -8&-12&-10&-2&-39 | -4&-8&-5&-1&5
69 | C=CC(=O)Nc1cccc(Nc2nc(Nc3ccc(N4CCN(C(C)=O)CC4)cc3OC)ncc2C(F)(F)F)c1 | -2 | 1
70 | CC12CCC(CC1)C(C)(C)O2 | -7 | -4
71 | COc1ccc(-n2nc(C(N)=O)c3c2C(=O)N(c2ccc(N4CCCCC4=O)cc2)CC3)cc1 | -13 | -7
72 | Nc1nc(OCc2cc(Br)cs2)c2[nH]cnc2n1 | -5 | 0
73 | CN(C)C/C=C/C(=O)Nc1cc2c(Nc3ccc(F)c(Cl)c3)ncnc2cc1O[C@H]1CCOC1 | -15 | -7
74 | COc1ccc(/C=C/C(=O)Nc2ccccc2C(=O)O)cc1OC | -15&42 | -8&1
75 | CC(N)C1CCC(C(=O)Nc2ccncc2)CC1 (centres undefined) | -11 | -4
76 | CC(=O)O[C@]1(C(C)=O)CCC2C3C=C(Cl)C4=CC(=O)[C@@H]5C[C@@H]5[C@]4(C)C3CC[C@@]21C (some centres undefined) | -15 | -10
77 | Cc1nc(C(=O)NCC(=O)O)c(O)c2ccc(Oc3ccccc3)cc12 | -18 | -16
78 | O=C(O)c1ccc[n+]([O-])c1 | -4&-1 | -5&8
79 | NC(=O)c1cn(Cc2c(F)cccc2F)nn1 | -21 | 4
80 | Cc1cc(-c2ccccc2)nnc1NCCN1CCOCC1 | -3&-11&-3 | -7&-6&-1
81 | CC1=CC(=O)NS(=O)(=O)O1 | 6 | -7
82 | C[C@H]1[C@H](C)CC[C@]2(C(=O)O)CC[C@]3(C)C(=CCC4[C@@]5(C)C[C@@H](O)[C@H](O)[C@@](C)(CO)C5CC[C@]43C)[C@H]12 (some centres undefined) | -6 | 4
83 | CC(=O)Nc1ccc(C(=O)O)cc1 | 7 | 2
84 | OC(C#CCN1CCCC1)(c1ccccc1)c1ccccc1 | -2 | 1
85 | N[C@@H](CC(=O)Nc1ccc(Oc2cc(F)c(F)cc2Br)cc1)C(=O)O | -3 | 10
86 | CCO[C@@H]1OC(=O)CC1NC(=O)[C@@H]1CCCN1C(=O)[C@@H](NC(=O)c1ccc(N)c(Cl)c1)C(C)(C)C (some centres undefined) | -10 | -6
87 | CC(=O)c1ccc(S(=O)(=O)NC(=O)NC2CCCCC2)cc1 | -4&-2 | 0&0
88 | CN(C(=O)CCCOc1ccc2[nH]c(=O)ccc2c1)C1CCCCC1 | -10 | 7
89 | CN1CCN(C(c2ccccc2)c2ccccc2)CC1 | -15&-4 | -14&0
90 | CN1CCN(CCC(=O)N2c3ccccc3Sc3ccc(C(F)(F)F)cc32)CC1 | -19 | -10
91 | Cc1cc(Nc2cc(N3CCN(C)CC3)nc(Sc3ccc(NC(=O)C4CC4)cc3)n2)n[nH]1 | -12 | -7
92 | CC1COc2c(N3CCN(C)CC3)c(F)cc3c(=O)c(C(=O)O)cn1c23 (centres undefined) | -10&6&-41&-11 | -6&11&4&-6

From PubChem BioAssay

Not all compounds are listed, so the mix of outcomes need not match the whole.
